LASV entry inh: inhibitors of Lassa virus binding or cell entry; Lassa virus pseudotype entry inhibition, cell reporter; control for the full effect not named in the record; 1.2% of 300,000 active; Potency, µM (doses to about 37.9 µM), for the others: top-dose activity change, negative = inhibition, hits mostly inhibitors; active means well fitted inhibition curve with a large enough effect; inconclusive means small, poorly fitted or top-dose-only effect, or effect the other way; inactive means flat fitted curve, though single readings scatter; tested in HEK293 cells; note: % is set by controls: 0 for no effect and ±100 for the full control effect; nearly all actives have a fitted effect of over 50% in size; luciferase read-out
StopGo reporter: FMDV 2A StopGo reporter, luciferase signal; human cells with a luciferase reporter of 2A StopGo recoding; control for the full effect not named in the record; Potency, µM (top dose mostly 57.9 µM), for the others: at the highest dose signal change, negative = less light; 1.2% of 410,000 active; AID 1159524; active = well fitted falling curve with a large enough effect; inconclusive = small, poorly fitted or top-dose-only effect; inactive = no such curve, though single readings can be large or run the other way; tested in HEK293T cells; note: % is set by controls: 0 for no effect and ±100 for the full control effect; nearly all actives have a fitted effect of over 45% in size; luciferase light after 4 h
MARV entry inh: Marburg virus entry inhibition; Potency, µM (series often up to 37.8 µM), inactives show at the highest dose activity change, negative = inhibition, actives largely listed as inhibitors; Marburg virus pseudotyped entry inhibition, cell reporter; control for the full effect not named in the record; about a third of the inactives were read at about 46 µM; 1.8% of 300,000 active; active = well fitted inhibition curve with a large enough effect; inconclusive = small, poorly fitted or top-dose-only effect, or effect the other way; inactive = flat fitted curve, though single readings scatter; tested in HEK293 cells; about a fifth of its hits are not listed in these tables; note: % is set by controls: 0 for no effect and ±100 for the full control effect; luciferase read-out
SARS PLpro yeast: SARS-CoV PLP inhibition in yeast; S. cerevisiae expressing SARS-CoV PLpro, growth rescue; control for the full effect not named in the record; Potency, µM (top dose mostly 32.9 µM), inactives show top-dose activity, positive = growth rescue; 0.19% of 330,000 active; AID 485353; note: 0% is about no effect; nearly all actives have a fitted effect of over 55% in size; growth read by luminescence after 48 h
RE007 growth inh: less growth of the S. pombe RE007 Vpr strain; S. pombe RE007 Vpr strain, BacTiter-Glo ATP luminescence, 24 h; control for the full effect not named in the record; Potency, µM (top dose mostly 92.2 µM), for inactives: at the highest dose activity change, negative = less growth; 0.21% of 360,000 active; AID 651644; active = well fitted falling curve with a large enough effect; inconclusive = small, poorly fitted or top-dose-only effect; inactive = no such curve, though single readings can be large or run the other way;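 note: % is set by controls: 0 for no effect and ±100 for the full control effect; nearly all actives have a fitted effect of over 50% in size; the assay follows cell death caused by Vpr and the record does not say whether a fall means rescue or toxicity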
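Fission yeast strain RE007, carrying one chromosomally integrated HIV-1 vpr copy, was seeded at OD 0.01 in PMG+AL medium with 23 nL pinned compound. After 24 h at 30 °C and 99% humidity, viability was read by BacTiter-Glo luminescence.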
NS1 function inh: influenza NS1 inhibition | S. cerevisiae slowed by influenza A NS1, growth recovery by OD600 | Potency, µM (doses to about 46.1 µM), for the others: at the top dose activity, positive = more growth | 0.4% of 270,000 active; note: actives are rising curves; nearly all actives have a fitted effect of over 50% in size
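Growth recovery, yeast-based: influenza A NS1 expressed in S. cerevisiae causes slow growth, and suppressors are detected by OD600. The parent strain without NS1 is used as positive control.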
Cruzain inh Det: inhibitors of Trypanosoma cruzi cruzain with detergent; P25779; purified cruzain, Z-FR-AMC fluorescence, 0.01% Triton; Potency, µM, inactives show max response, negative = inhibition, usual class: inhibitors; 0.43% of 200,000 active; active = well fitted curve in the direction sought with a large enough effect; inconclusive = small, poorly fitted or top-dose-only effect, or another doubt; inactive = no such curve, though single readings can be large; an effect the other way counts as inactive or inconclusive;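 note: plate controls were neutral wells for no effect and buffer without enzyme for full effect; nearly all actives have a fitted effect of over 40% in size; top concentration of the series not given in the record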
Target sequence (P25779 123-467 limits assumed): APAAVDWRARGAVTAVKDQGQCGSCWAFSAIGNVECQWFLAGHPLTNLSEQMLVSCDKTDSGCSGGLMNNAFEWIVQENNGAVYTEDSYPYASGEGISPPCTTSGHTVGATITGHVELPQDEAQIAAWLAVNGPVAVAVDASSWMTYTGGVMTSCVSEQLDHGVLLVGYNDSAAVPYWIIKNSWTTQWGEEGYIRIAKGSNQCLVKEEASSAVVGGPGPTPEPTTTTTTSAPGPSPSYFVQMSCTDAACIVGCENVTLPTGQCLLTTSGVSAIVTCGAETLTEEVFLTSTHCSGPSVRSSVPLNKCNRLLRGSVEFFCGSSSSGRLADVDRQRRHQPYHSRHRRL
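15 min RT preincubation of 1.5 nM cruzain with compound, then 2 uM Z-FR-AMC added; kinetic AMC fluorescence, 60 s delta. Triton X-100 0.01%, pH 5.5.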
Cruzain inh noDet: blocks cruzain activity in detergent-free assay; purified cruzain, Z-FR-AMC fluorescence, no detergent; Potency, µM, for the others: max response, negative = inhibition, most hits filed as inhibitors; 2.3% of 200,000 active; AID 1476; active = well fitted curve in the direction sought with a large enough effect; inconclusive = small, poorly fitted or top-dose-only effect, or another doubt; inactive = no such curve, though single readings can be large; an effect the other way counts as inactive or inconclusive;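 note: plate controls were enzyme without inhibitor for no effect and buffer without enzyme for full effect; nearly all actives have a fitted effect of over 40% in size; top concentration of the series not given in the record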
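Purified cruzain at 1.5 nM, pre-incubated 15 min with compound at room temperature in 100 mM sodium acetate pH 5.5, 5 mM DTT, 0.00005% Triton X-100. Reaction started with 2 uM Z-FR-AMC; AMC fluorescence increase over 60 s gives rate.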
Starred values were filed as active, the others as inactive; u = inconclusive; x = not tested or not shown; & = joins results of further samples; [ ] = another dose, or the depositor's remark. Unless noted, calls come from the whole dose curve; as a rule, active means well fitted rising curve with a large enough effect; inconclusive means small, poorly fitted or top-dose-only effect; inactive means no such curve, though single readings can be large or run the other way. Potency is the fitted concentration of half-maximal effect. This is a random part of the collection; any-hit rate near 4.8%.

Order of values: LASV entry inh	StopGo reporter	MARV entry inh	SARS PLpro yeast	RE007 growth inh	NS1 function inh	Cruzain inh Det	Cruzain inh noDet
- CC1(C)OC(=O)C(=Cc2ccc(-c3ccc(Cl)c(C(=O)O)c3)o2)C(=O)O1
    1%	3%	8%[46.1 µM]	5%	43%	x	x	x
- Cn1cccc1Cc1nnc(SCC(=O)Nc2ccccc2F)n1-c1ccc(F)cc1
    9%	8%	-2%&-2%	-10%	-7%	10%	-1.6%	7%
- O=C(OCc1nc2ccc(Cl)cc2n1CCO)c1ccccc1C(=O)c1ccccc1
    u	0%	u	10%	6%	-3%	-8.4%	0%
- CCN(CC)Cc1c(C(=O)N/N=C/c2ccco2)nnn1-c1nonc1N
    x	2%	x	-1%	16%	17%	x	x
- CC(=O)NNc1ncnc2ccccc12
    x	-7%	x	u	5%	-3%	-5.1%	-3%
- O=C(Nc1ccccc1OC(F)F)c1ccc(F)cc1
    -2%	-5%	12%[46.1 µM]	-6%	-18%	0%	-2.7%	1%
- Cc1ccccc1C(=O)N1CCC(C(=O)NCc2ccc(Cl)cc2)CC1
    x	u	x	-6%	1%	-3%	x	x
- COc1ccc(CCC(=O)NCCc2ccc(OC)c(OC)c2)cc1
    -3%[46.1 µM]	-17%	-2%[46.1 µM]	-4%	15%	0%	x	x
- CCOC(=O)Cn1nc(C)c(NC(=O)COc2ccc([N+](=O)[O-])c(C)c2)c1C
    -1%	-4%	-2%[46.1 µM]	0%	4%	x	x	x
- CC(C)Oc1ccc(C(=O)N2CCC(c3nc4ccccc4s3)CC2)cc1
    6%[46.1 µM]	-20%	u	x	x	x	-9.4%	7%
- CCCOc1ccccc1C1CC(=O)Nc2cc3c(cc21)OCO3 (stereo not given)
    u	u	6.3µM*	-9%	16%	-100%	-10.0%	-12%
- CCN1CCN(CCCNC(=O)c2cc3c(s2)-c2ccccc2OC3)CC1
    x	9%&0%	u	-6%	-16%	0%	28µM*	u
- C=CCN1C(=O)/C(=C/c2ccc(Br)s2)C(=O)NC1=S
    x	32µM*	x	-6%	u	-42%	x	x
- Cc1ccc2oc(-c3ccccc3)nc2c1
    11%	0%	u	-2%	-9%	-16%	0.8%	10%
- COCCNC(=O)C1CC(c2cccc(OC)c2)=NO1 (stereo not given)
    2%	15%	u	-3%	-19%	4%	1.8%	-12%
- CCN1C(=S)N[C@@H](CCc2ccccc2)[C@H](C(=O)OC)[C@H]1C
    x	-21%	x	-1%&4%	11%	4%&7%	x	x
- CCOC(=O)c1ccc(NC(=O)COc2coc(CN3CCc4ccccc43)cc2=O)cc1
    1%	-13%	1%	0%	-6%	x	x	x
- COC(=O)c1cc2occc2n1CC(=O)Nc1ccc(N(C)C)cc1
    x	15%	-6%[46.1 µM]	x	x	x	-6.5%	-4%
- COc1ccc(C(=O)NCc2nnc(SCC(=O)NC3CCCCC3)n2C)cc1
    u	2%	9%[46.1 µM]	17%	2%	1%	x	x
- Cc1ccc(S(=O)(=O)Nc2ccccc2N=Cc2ccc([N+](=O)[O-])cc2[N+](=O)[O-])cc1
    -13%[46.1 µM]	-2%	u	x	-11%	x	x	x
- COc1ccc2cc(C#N)c(N3CCN(Cc4nnnn4CCC(C)C)CC3)nc2c1
    -6%	u	0%&2%	3%	4%	-41%	-1.0%	14%
- Cc1ccc(NC(=O)c2ccc(OC(=O)COc3ccc(Cl)c(C)c3)cc2)cc1
    -18%	u	u	5%	6%	9%	7.4%	16µM*
- Cc1ccc(Cc2nc3ccccc3nc2SCC(=O)N2CCCc3ccccc32)cc1
    -4%[46.1 µM]	-20%	x	x	x	x	-1.3%	-9%
- CC1CN(CC(=O)Nc2ccccc2Sc2ccccc2)CC(C)O1 (stereo not given)
    3%	u	u	1%	-3%	-29%	-7.5%	u
- Cc1ccc(N2CC(C(=O)Nc3ccc(S(=O)(=O)NCC4CCCO4)cc3)CC2=O)cc1 (stereo not given)
    5%	11%	-17%	8%	-8%	9%	x	x
- CCOc1cc(CN2CCN(c3cccc(C(F)(F)F)c3)CC2)ccc1O
    -5%	-6%	16µM*	1%	-11%	3%	-2.9%	4%
- Cc1cccc(-n2nc3c(c2NC(=O)c2cc4ccccc4o2)CS(=O)(=O)C3)c1
    -16%	-15%	1%	5%	1%	8%	x	x
- COc1cc(OC)c(C2=NOC(C(=O)NCc3ccc4c(c3)OCO4)C2)cc1Cl (stereo not given)
    -21%	x	u	-2%	8%	-56%	-2.4%	11%
- COc1cccc(C2=NOC(C(=O)Nc3cc(C)on3)C2)c1OC (stereo not given)
    x	4%	x	0%	7%	0%	x	x
- CC(C)OC(=O)CSc1nc2ccccc2s1
    7%	51%[activator]	1%	-3%	-13%	10%	3.2%	2%
- O=C(OCc1nnc(-c2ccccc2)o1)c1cc(S(=O)(=O)N2CCOCC2)c(Cl)cc1Cl
    -3%	-22%	5%&16%	3%	-26%	-5%	-5.6%	u
- Nn1c(=O)c2ccccc2n2c(SCc3ccccc3)nnc12
    0%	27%	1%	0%	20%	11%	-1.9%	-3%
- CNC(=O)CSc1nnc(C2CC2)n1-c1ccccc1
    19%	-1%	13%	2%	3%	x	x	x
- CC(=O)N/C(=N/c1nc(C)cc(C)n1)Nc1ccc(F)cc1F
    u	-18%	-27%	-1%	-1%	-2%	x	x
- CCCn1c(CN2CCN(C)CC2)nc2ccccc21
    12%	-18%	-6%	6%	24%	8%	3.9%	-8%
- COC(=O)C1C(c2ccccc2)NC(=O)NC1(O)C(F)(F)Cl (stereo not given)
    11%[46.1 µM]	-15%	u	1%	10%	4%	x	x
- O=C(Nc1ccccc1)NC1CCN(Cc2ccccc2)CC1
    x	-8%	x	-1%	-4%	-1%	x	x
- O=c1cc(CNCCCO)c2ccccc2[nH]1
    21%	-18%	u	3%	-16%	u	2.8%	-13%
- COC(=O)CN(c1cc(C(F)(F)F)ccc1Cl)S(C)(=O)=O
    3%	-11%	22%	-2%	-7%	29%	2.5%	5%
- COc1cccc(NC(=O)c2ccc3c(c2)CCCC3)c1
    x	-2%	x	-66%	u	-33%	x	x

In a second layout: two of the compounds above.
Structure,LASV entry inh,StopGo reporter,MARV entry inh,SARS PLpro yeast,RE007 growth inh,NS1 function inh,Cruzain inh Det,Cruzain inh noDet
Cc1ccc(N2CC(C(=O)Nc3ccc(S(=O)(=O)NCC4CCCO4)cc3)CC2=O)cc1 (stereo not given),5%,11%,-17%,8%,-8%,9%,x,x
CCCn1c(CN2CCN(C)CC2)nc2ccccc21,12%,-18%,-6%,6%,24%,8%,3.9%,-8%

Carrying on:
Order of values: LASV entry inh	StopGo reporter	MARV entry inh	SARS PLpro yeast	RE007 growth inh	NS1 function inh	Cruzain inh Det	Cruzain inh noDet
- O=C(N1CCCC1)C12CC3CCC(CC(C3)C1)C2
    u	-27%	u	-2%	37%	-6%	x	x
- C=CCN1C(=O)c2ccc(C(=O)N3CCN(S(=O)(=O)c4cccc(F)c4)CC3)cc2C1=O
    u	-31%	-8%	-7%	-2%	x	x	x
- CCSc1nnc(NC(=O)Cc2cccc(OC)c2)s1
    u	6%	3%	-3%	1%	0%	-4.2%	-4%
- COc1cc(CN2CCN(C(=O)COc3ccccc3)CC2)cc(OC)c1OC
    1%	-11%	u	3%	2%	-7%	2.0%	-4%
- O=P(O)(O)COc1ccccc1P(=O)(c1ccccc1)c1ccccc1
    15%	-5%	-4%	1%	-3%	1%	3.6%	1%
- COc1ccc(-c2nnc(NC(=O)C3=COCCO3)o2)cc1
    2%	19%	3%	-5%	-25%	-7%	-0.3%	u
- O/N=C(/CCc1ccccc1)c1ccc2c(c1)OCCO2
    u	32%[activator]	3%[46.1 µM]	-2%	3%	-38%	x	x
- Cc1c(C(=O)Nc2cccc(Cl)c2)c2ccccn2c1CCc1ccncc1
    u	-29%	u	-44%	-16%	5%	-10%	8%
- COc1cccc(C(C(=O)NC(C)(C)C)N(CCC(C)C)C(=O)CCC(=O)Nc2cc(C)on2)c1OC (stereo not given)
    -17%[46.1 µM]	-16%	8.9µM*	-1%	-10%	5%	x	x
- COCn1c(COc2ccccc2)nc2ccccc21
    19%	47%[activator]	u	-5%	-9%	-10%	3.3%	1%
- CCOC(=O)c1ccccc1NC(=O)c1cnn(-c2ccc(OC)cc2)c1C1CCN(C(=O)OC(C)(C)C)CC1
    u	4%	x	x	x	x	-0.3%	-8%
- Cc1cc(N2CCN(C(c3ccccc3)c3ccccc3)CC2)n2ncnc2n1
    -2%	u	10%	x	34%	-108%	9.8%	u
- O=C(NCC1CCCO1)c1cccc(NC(=O)c2ccco2)c1 (stereo not given)
    -30%	-16%	14%[46.1 µM]	2%	17%	3%	-0.1%	2%
- CCOc1cccc(/C(O)=C2/C(=O)C(=O)N(CCOC)C2c2ccco2)c1 (stereo not given)
    0%	-5%	-2%	6%	3%	-1%	-0.2%	-25%
- CCCCNc1nc(-c2ccccc2)cc(C(F)(F)F)c1C(N)=O
    -11%	x	0%	-24%	11%	-37%	-13%	-1%
- O=C(N/N=C/c1c[nH]c2ccccc12)c1cc(-c2ccccc2)n[nH]1
    15%	-5%	-14%[46.1 µM]	11%	-1%	6%	-13%	3%
- Cc1cc(C)c2nc3sc(C(=O)N4CCOCC4)c(N)c3cc2c1
    x	-46%	x	-1%	-5%	3%	x	x
- CC(=O)N1CN(C(C)=O)CN(C(C)=O)C1
    10%	-21%	14%	-1%	12%	x	x	x

Screens: PubChem, National Center for Advancing Translational Sciences (NCATS)
